Rango dissoc inh: inhibition of RanGTP-driven Rango-importin beta dissociation. O95149+P62826. Biochemical FRET Rango-importin beta, RanGTP-induced dissociation. Potency, µM (titrated, usually from 46.1 µM), without a hit: top-dose activity change, negative = inhibition. 340,000 tested, 0.071% active. AID 540253; active means falling FRET ratio curve, often poorly fitted, with flat reads before Ran was added; inconclusive means other falling curves, or compound fluorescence or quenching; inactive means flat or rising ratio curve;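 note: potency is the fitted concentration of half-maximal effect; % of control where 0% means no effect; nearly all actives have a fitted effect of over 45% in size; -100% = wells without RanGTP and RCC1; the record marks most hits as doubtful in a second field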
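Recombinant Rango FRET biosensor (EYFP–snurportin 1 IBB–cerulean CFP10) at 0.1 uM premixed with 0.25 uM importin beta in PBS, 1 mM DTT, 0.02% Tween-20, 0.1% BSA. Compound added 5 min; RanGTP-RCC1 (0.6 uM Ran, 2 mM GTP, 0.2 uM RCC1) then triggers release, read at 45 min.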
miR-21 reporter: miR-21 reporter, rising signal; 340,000 tested, under 10 active; HeLa miR-21 FLuc reporter, luciferase, 48 h; Potency, µM (highest dose often 38.3 µM), inactives show top-dose reporter change, positive = more light; active = well fitted rising curve with a large enough effect; inconclusive = small, poorly fitted or top-dose-only effect; inactive = no such curve, though single readings can be large or run the other way;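 note: % of control where 0% means no effect; miR-21 action dims this reporter so a rising signal means less miR-21 action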
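Using DMEM plus 10% FBS, HeLa miR-21-FLuc cells are incubated with test compounds (final up to about 40uM) for 48 hours; firefly luciferase signal is then imaged following reagent-mediated lysis.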
GLA inh pH 4.5: blocks human alpha-galactosidase A at pH 4.5; P06280; purified enzyme, 4-MU-alpha-Gal fluorescence, pH 4.5; activity change, negative = inhibition, % at 105 µM; 230,000 tested, under 10 active; AID 1467; inconclusive = small, poorly fitted or top-dose-only inhibition, or a rising curve; inactive = flat fitted curve, though single readings scatter; no compound was filed as active;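 note: 0% = full activity with enzyme and -100% = basal without enzyme; dose as in the result columns while the protocol names 77 µM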
Rango complex inh: Rango-importin beta binding inhibition | Q14974 | Rango CFP/YFP FRET sensor + importin beta, 45 min | Potency, µM (top dose mostly 92.2 µM), for the others: at the highest dose inhibition of complex formation | 340,000 tested, 0.031% active | AID 540263; active = rising FRET ratio curve, often small or poorly fitted; inconclusive = mostly compound fluorescence or quenching in the first reads; inactive = flat curves in all reads;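 note: potency is the fitted concentration of half-maximal effect; 0% = DMSO wells and 100% = buffer wells lacking importin beta; nearly all actives have a fitted effect of over 15% in size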
Target sequence (Q14974 whole entry, looked up): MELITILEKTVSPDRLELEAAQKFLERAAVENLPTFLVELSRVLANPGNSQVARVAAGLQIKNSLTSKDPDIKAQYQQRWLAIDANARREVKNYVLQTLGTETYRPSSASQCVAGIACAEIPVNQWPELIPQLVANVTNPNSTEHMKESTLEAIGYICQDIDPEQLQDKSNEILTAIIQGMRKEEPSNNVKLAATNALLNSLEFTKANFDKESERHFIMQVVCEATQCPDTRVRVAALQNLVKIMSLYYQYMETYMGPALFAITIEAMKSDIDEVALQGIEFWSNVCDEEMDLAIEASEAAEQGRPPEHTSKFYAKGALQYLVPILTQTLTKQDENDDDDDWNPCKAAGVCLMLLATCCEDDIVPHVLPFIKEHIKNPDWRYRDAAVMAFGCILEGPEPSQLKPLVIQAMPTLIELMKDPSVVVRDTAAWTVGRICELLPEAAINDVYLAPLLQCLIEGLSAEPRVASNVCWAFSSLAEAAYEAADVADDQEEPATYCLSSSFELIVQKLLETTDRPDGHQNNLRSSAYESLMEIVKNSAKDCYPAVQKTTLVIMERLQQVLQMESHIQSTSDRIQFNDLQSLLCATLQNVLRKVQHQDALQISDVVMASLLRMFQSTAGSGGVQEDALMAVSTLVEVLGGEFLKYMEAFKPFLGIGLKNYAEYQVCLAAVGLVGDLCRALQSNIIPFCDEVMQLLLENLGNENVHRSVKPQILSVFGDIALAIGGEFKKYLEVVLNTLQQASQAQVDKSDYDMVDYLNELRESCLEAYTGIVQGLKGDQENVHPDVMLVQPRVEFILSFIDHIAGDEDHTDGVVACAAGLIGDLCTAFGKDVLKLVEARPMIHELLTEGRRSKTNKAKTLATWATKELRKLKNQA
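FRET biosensor Rango (snurportin 1 IBB between N-terminal EYFP and C-terminal Cerulean), 50 nM in PBS/1 mM DTT/0.02% Tween-20/0.1% BSA, preincubated 5 min RT with compound; 0.125 microM importin beta added, 45 min RT, CFP/YFP FRET ratio read.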
An asterisk follows results filed as active; ? = inconclusive; nt = no result given. These rows are one share of the data; count on the stated rates, not on these rows.

Each structure is followed by: Rango dissoc inh, miR-21 reporter, GLA inh pH 4.5, Rango complex inh
(1) COC(=O)C(Cc1c[nH]c2ccccc12)N1CCS(=O)(=O)CC1 (stereo not given)
 : 9.4%, -1.4%, 3.1, -4.8%
(2) O=C(c1cc(COc2c(F)cccc2F)on1)N1CCSCC1
 : 21.5%, -54.9%, -3.5, 0.4%
(3) CCc1nc(N2CCC3(CC2)OCCO3)c2nnn(Cc3ccccc3)c2n1
 : 1.4%, -2.2%, 1.2, -0.2%
(4) O=C1NC2(CCCC2)C(=O)N1CC(=O)N(Cc1ccccc1)c1ccccc1
 : 0.0%, nt, nt, 3.1%
(5) CCOC(=O)C(CC)Sc1nnc2cc(C)c3ccccc3n12 (stereo not given)
 : 10.3%, nt, nt, 1.9%
(6) Cc1ccc(Cc2nnc(SCC(=O)Nc3ccccc3)[nH]c2=O)cc1
 : -6.4%, nt, nt, ?
(7) Cc1ccc(/C=N/N2CCCCC2)o1
 : 3.9%, -1.5%, 1.0, 5.1%
(8) C=CCN1C(=O)/C(=C\c2cccs2)C(C(=O)OC)=C1C
 : 21.2%, 0.1%, 4.0, 0.2%
(9) CC(=O)c1ccc(NC(=O)C2CCC(C)(C(=O)O)C2(C)C)cc1 (stereo not given)
 : -3.9%, 0.0%, 6.0, -0.4%
(10) Cc1ccc(C)c(C(=O)COC(=O)C2CCN(c3ccc(C(F)(F)F)cn3)CC2)c1
 : 8.5%, nt, nt, 1.7%
(11) O=C(CCN1CCN(Cc2ccccc2)CC1)NNC(=O)Nc1cccc([N+](=O)[O-])c1
 : 6.2%, 1.0%, nt, 0.3%
(12) COc1ccc(S(=O)(=O)N(Cc2ccccc2)Cc2nc3ccccc3c(=O)[nH]2)cc1
 : 11.5%, 8.1%, -0.9, 0.8%
(13) CCn1c(=O)cc(OCC(=O)N2CCc3ccccc32)c2ccccc21
 : -8.7%, -7.0%, 7.5, 5.0%
(14) CCc1nn2c(=O)cc(CSCC(=O)Nc3ccccc3F)nc2s1
 : 1.9%, -0.5%, nt, 1.1%
(15) O=C(NCc1ccncc1)C(=O)N/N=C/c1ccccn1
 : -6.7%, -0.7%, 6.5, -2.7%
(16) CCc1cc2c(SCC(=O)N3CC(=O)Nc4ccccc43)ncnc2s1
 : -12.4%, -8.4%, -0.1, 0.3%
(17) CC(=O)N(c1ccc2oc(=O)sc2c1)S(=O)(=O)c1cccc2cccnc12
 : -4.1%, -0.8%, nt, -1.4%
(18) O=C(COc1ccc(Br)cc1)Nc1ccccc1C(=O)N1CCOCC1
 : -4.8%, 0.7%, nt, -3.5%
(19) O=C(O)C1CCCN(S(=O)(=O)Cc2ccccc2)C1 (stereo not given)
 : 1.3%, 0.1%, nt, 0.9%
(20) CCC(Sc1nc(C)cc(C)n1)C(=O)O (stereo not given)
 : -20.4%, -4.0%, -3.9, -2.5%
(21) OC(CN1C2=NCCCN2c2ccccc21)c1ccc(Cl)cc1 (stereo not given)
 : 11.9%, -5.8%, -0.1, 0.3%
(22) C#CCN1C(=O)S/C(=C\c2ccc(-c3ccc(Cl)c(C(=O)O)c3)o2)C1=O
 : ?, -34.4%, nt, ?
(23) O=C1COc2ccc(S(=O)(=O)N3CCC(C(=O)NCc4ccc(F)cc4)CC3)cc2N1
 : 8.0%, -0.3%, nt, 0.4%
(24) CC(C)OC(=O)c1sc2nc3c(cc2c1N)C(=O)CCC3
 : -2.1%, -34.0%, 6.3, -2.5%
(25) O=C(c1ccccc1)C1CCN(C(=O)C2CCC(=O)N(Cc3cccc(F)c3)C2)CC1 (stereo not given)
 : -11.4%, 6.2%, nt, -1.9%
(26) Cc1ccc(NC(=O)N2CCN(S(=O)(=O)c3ccccc3)CC2)cc1
 : ?, -0.4%, -2.1, -1.4%
(27) C/C(=N/NC(=O)c1ccoc1C)C12CC3CC(CC(C3)C1)C2
 : -3.8%, -60.6%, 12.4, 0.2%
(28) CCN1CCN(c2cc(C)c3cc(NC(=S)N4CCCC(C)C4)ccc3n2)CC1 (stereo not given)
 : -13.7%, -29.8%, 8.9, 0.2%
(29) CCOC(=O)C1=CN(Cc2ccc(OC)cc2)C=C(C(=O)OCC)C1c1cccs1
 : -21.8%, 0.6%, 19.2, -5.9%
(30) O=C(CCc1ccc(S(=O)(=O)NCCc2ccccc2)cc1)NCc1ccc2c(c1)OCO2
 : -4.0%, -1.1%, -4.4, 3.6%

Single entries from above.
CC(=O)c1ccc(NC(=O)C2CCC(C)(C(=O)O)C2(C)C)cc1 (stereo not given) in GLA inh pH 4.5 is listed with 6.0
O=C1COc2ccc(S(=O)(=O)N3CCC(C(=O)NCc4ccc(F)cc4)CC3)cc2N1 in miR-21 reporter is listed with -0.3%

Next part
Each structure is followed by: Rango dissoc inh, miR-21 reporter, GLA inh pH 4.5, Rango complex inh
(31) Clc1ccccc1-c1nnc2n1-c1ccccc1SC2
 : 6.8%, -1.3%, 3.6, 1.4%
(32) CCOC(=O)C1CCCN(C2=NC(=O)/C(=C/c3ccc(O)c(OC)c3)S2)C1 (stereo not given)
 : ?, -9.7%, nt, ?
(33) Cc1ccc(/C=C/C(=O)OCC(=O)NC(=O)NCc2ccccc2)cc1
 : -12.1%, nt, nt, -0.6%
(34) Cn1c(NC(=O)c2cc(Cl)ccc2Cl)cc(=O)n(C)c1=O
 : 3.2%, -9.0%, 7.1, 3.1%
(35) CCOC(=O)c1ccc(NC(=O)c2c(C)[nH]c(C(=O)OCC)c2C)cc1
 : -15.0%, -4.6%, 0.0, ?
(36) CC1(C)CC(NC(=O)C2CCN(S(=O)(=O)c3cccc(C(F)(F)F)c3)CC2)CC(C)(C)N1
 : 11.0%, nt, nt, -1.1%
(37) CCCS(=O)c1nc(C)cc(C)c1S(C)(=O)=O (stereo not given)
 : 2.5%, -0.3%, 9.8, 0.5%
(38) Clc1ccc(Cc2noc(-c3cccs3)n2)cc1
 : -8.7%, -47.8%, 1.6, -3.3%
(39) CC(=O)Nc1nonc1NC(=O)c1ccc(F)cc1
 : 7.8%, -0.3%, -3.6, -1.8%
(40) COCCN1Cc2cccc(C(=O)Nc3ccc(S(=O)(=O)N4CCCCC4)cc3)c2C1=O
 : 1.6%, -2.0%, -6.7, -2.5%
(41) CN(C)C(=O)C1C2NC(=S)N(c3ccccc3)C1(C)Oc1ccccc12 (stereo not given)
 : 12.7%, -1.7%, -10.6, -1.5%
(42) O=C(CCCCCN1C(=O)C2C3C=CC(C3)C2C1=O)Nc1nccs1 (stereo not given)
 : -15.6%, -13.7%, -17.6, -2.4%
(43) CCN1CCCC1Cn1cnc2c([nH]c3ccc(Cl)cc32)c1=O (stereo not given)
 : 3.8%, -6.5%, -12.1, -0.6%
(44) Cc1onc(-c2ccccc2)c1C(=O)N(CC(C)C)c1c(N)n(CC(C)C)c(=O)[nH]c1=O
 : 2.1%, nt, nt, -3.8%
(45) O=C1OC[C@H]2CCCN2C(=O)[C@@H](CC(=O)N(CCO)Cc2ccccc2)C/C=C\CC[C@H]1Cc1ccc(F)cc1
 : -19.8%, nt, nt, -0.5%
(46) O=C(COC(=O)C1CC1)Nc1ccc(Cl)cn1
 : -25.4%, nt, nt, ?
(47) O=C(NCCCO)c1cc2ccccc2[nH]1
 : -4.3%, 1.4%, -12.8, -1.7%
(48) CN(C)c1ccc(/C=C/c2nnnn2-c2ccccc2)cc1
 : ?, -75.4%, -12.9, ?
(49) COc1ccc(N2CCN(C(=O)CCCC3=NS(=O)(=O)c4ccccc4N3)CC2)cc1
 : -1.1%, 0.2%, 13.1, -2.5%
(50) C=CCC[C@@H](Cc1ccc(F)cc1)C(=O)OC[C@@H](Cc1ccccc1)NC(=O)[C@@H](CC=C)CC(=O)N[C@@H](CO)Cc1ccccc1
 : 5.6%, nt, nt, -2.9%
(51) CC12CCC(C(=O)N3CCCc4ccccc43)(CC1=O)C2(C)C (stereo not given)
 : 0.7%, -2.9%, -2.8, -1.6%
(52) Cc1ccc(NC(=O)C(=O)NCCc2c[nH]c3ccccc23)c(C)c1
 : 5.0%, 0.3%, 6.8, -0.9%
(53) COc1cc([N+](=O)[O-])ccc1NC(=S)Nn1cnnc1
 : -6.1%, -0.8%, nt, 0.1%
(54) Cc1ccccc1Nc1nnc(SCC(=O)c2c(N)n(C)c(=O)n(C)c2=O)s1
 : 3.9%, -1.1%, -7.4, 0.2%
(55) O=C(Nc1ccccc1C(F)(F)F)N1CCCC(O)C1 (stereo not given)
 : -6.6%, 1.5%, 0.4, -2.9%
(56) O=C(CCNC(=O)c1ccc([N+](=O)[O-])cc1)NCCc1ccccc1
 : -9.5%, -14.7%, nt, 11.0%
(57) CCOCCCN(Cc1ccco1)S(=O)(=O)c1csc(C(N)=O)c1
 : 9.9%, -4.3%, nt, -1.5%
(58) Nn1c(SCC(=O)N2CCCC2=O)nnc1-c1cccs1
 : 0.0%, nt, nt, 0.2%
(59) Cc1nc(C)c(-c2csc(NCCc3ccccc3)n2)s1
 : -14.0%, -9.6%, -3.1, -1.1%
(60) Cc1cccc(C(C)C)c1NC(=O)c1c(-c2ccccc2)noc1C
 : 12.8%, -2.5%, nt, -2.9%

(list continues)
Each structure is followed by: Rango dissoc inh, miR-21 reporter, GLA inh pH 4.5, Rango complex inh
(61) O=C1CC(N2CCN(Cc3ccc(Cl)cc3)CC2)C(=O)N1CCc1ccccc1 (stereo not given)
 : -13.7%, 15.6%, -4.0, 1.4%
(62) O=C(CN1CCCCC1)NN(Cc1ccccc1)c1ccccc1
 : ?, ?, -0.3, -2.8%
(63) Cc1nnc(SCC(=O)NC(=O)NC(C)C)s1
 : 47.1%, -1.2%, -5.0, -1.6%
(64) CC(NC(=O)COC(=O)CCC(=O)c1ccc(F)cc1)c1ccccc1 (stereo not given)
 : 1.4%, nt, nt, -5.1%
(65) CN(C)c1ccc(NS(=O)(=O)c2ccc(Cl)cc2)cc1
 : 23.9%, -6.2%, 0.2, 7.5%
(66) COc1ccc(C2CC(c3c(-c4ccccc4)c4cc(Cl)ccc4[nH]c3=O)=NN2S(C)(=O)=O)cc1OC (stereo not given)
 : 1.4%, 8.2%, -3.4, 2.5%
(67) CC(=O)Nc1ccc(NC(=O)COC(=O)c2cc([N+](=O)[O-])ccc2N2CCOCC2)cc1
 : -11.8%, -10.2%, nt, -2.1%
(68) CC1CC(=O)c2cnc(N3CCOCC3)nc2C1 (stereo not given)
 : 38.1%, -12.4%, 7.2, -1.0%
(69) CCN(CC(=O)NCc1cccs1)S(=O)(=O)c1cccc(Br)c1
 : 7.9%, nt, nt, -0.8%
(70) Cc1cccc(-c2ccc(NC(=O)C3CCN(CC4CC4)CC3)cc2)c1
 : 1.9%, -13.3%, nt, 0.1%
(71) O=C(Oc1ccc(N(Cc2cccs2)C2=NS(=O)(=O)c3ccccc32)cc1)c1ccco1
 : -1.6%, 0.9%, 4.4, -1.9%
(72) COCCNC(=O)C(OC(=O)c1cc2oc(C)cc2n1C)C(C)C (stereo not given)
 : -2.9%, -7.3%, 3.6, -3.0%
(73) CCOC(=O)Cc1csc(NC(=O)c2sc3nc4c(C)cc(C)cc4cc3c2N)n1
 : ?, -19.0%, -4.1, ?
(74) O=C(NCCNc1ccc([N+](=O)[O-])cc1)c1ccccc1Br
 : -0.5%, 7.3%, -12.3, 0.1%
(75) Cc1ccc(NS(=O)(=O)c2cn(C)c(=O)n(C)c2=O)c(C)c1
 : 3.8%, 1.6%, nt, -10.9%
(76) O=C(Nc1ccc2c(c1)OCCO2)C1CCN(S(=O)(=O)c2ccc3c(c2)OCCO3)CC1
 : 24.4%, -10.0%, 3.3, -2.4%
(77) O=C(NCc1cccs1)c1nn2cccnc2c1Cl
 : -5.4%, -43.1%, 1.5, -0.4%
(78) O=C(COC(=O)c1nc(Cl)c(Cl)c(Cl)c1Cl)NCc1ccccc1
 : -8.0%, nt, nt, 0.5%
(79) O=C(Cc1ncon1)Nc1ccc(F)c(F)c1F
 : -7.2%, -0.4%, -1.2, -2.0%
(80) CC1(C)CC(=O)C=C(c2ccc(F)nc2)C1
 : -0.5%, nt, nt, -2.9%
(81) Cn1cc(S(=O)(=O)NCCc2ccccc2)c(=O)n(C)c1=O
 : 0.7%, 0.4%, 0.5, -3.2%
(82) COc1ccc(NC(=O)CN2CCCCC2)c([N+](=O)[O-])c1
 : -5.6%, -46.5%, -6.1, -5.6%

Screens (PubChem BioAssay)
